VACV mCherry inh: inhibitors of vaccinia virus infection (mCherry reporter signal). 310,000 tested, 0.63% active. Vaccinia virus mCherry reporter infection, fluorescence; about a quarter of the inactives have no number. Potency, µM (top dose mostly 36.5 µM), inactives show at the highest dose activity change, negative = inhibition, actives largely listed as inhibitors. AID 720579; active = well fitted inhibition curve with a large enough effect; inconclusive = small, poorly fitted or top-dose-only effect; inactive = no such curve, though single readings can be large or run the other way; tested in A549 cells; also: nearly all actives have a fitted effect of over 35% in size; inactives centre near -10
Vaccinia Venus: inhibitors of vaccinia virus (Venus reporter) | Vaccinia virus Venus reporter expression, fluorescence | Potency, µM (titrated, usually from 36.5 µM), for inactives: at the top dose activity change, negative = inhibition, usual class: inhibitors | 330,000 tested, 0.46% active; active means well fitted inhibition curve with a large enough effect; inconclusive means small, poorly fitted or top-dose-only effect; inactive means no such curve, though single readings can be large or run the other way; tested in A549 cells; also: nearly all actives have a fitted effect of over 30% in size; inactives centre near -10
Active calls of the source: *; i = inactive; ? = inconclusive; . = not tested or not shown; & = joins results of further samples; [ ] = another dose, or the depositor's remark. % is scaled to controls: 0 for no effect and ±100 for the full control effect; potency is read from the fitted curve at half-maximal effect. Hits appear at their usual frequency. Share with any hit: about 0.82%.

Order of values – VACV mCherry inh | Vaccinia Venus
CCOc1ccc(S(=O)(=O)N2CCN(C(=S)NC3CC3)CC2)cc1
 : -23% | -19%
Cc1nc(C)c(N)c(=O)[nH]1
 : 3% | 0%
O=C(O)c1cccc2c1Cc1cc(Cl)ccc1-2
 : i | 1%
Cc1ccc(-c2nsc3c(N4CCC(C(N)=O)CC4)ncnc23)cc1
 : -14% | -11%
COc1ccc(-c2cccc([C@H]3[C@@H]4C=CCC[C@@]4(C)C(=O)N3Cc3ccccc3)c2)cc1
 : i | -24%
O=C1CC(c2ccccc2)CC(O)=C1C=NC1CCCC1 (centres undefined)
 : -27% | -21%
COc1ccc(C(=O)NC2CC(C)(C)Cc3c2cnn3-c2ccccc2)c(OC)c1 (centres undefined)
 : -13% | -13%
[O-]c1ccccc1-[n+]1c(-c2ccccc2)cc(-c2ccccc2)cc1-c1ccccc1
 : -29% | -27%
COC(=O)CC1Oc2ccc(C)cc2-n2cc(-c3ccc(C)cc3)nc21 (centres undefined)
 : -11% | -8%
Cc1csc2ncc(C(=O)NCCC(c3ccccc3)c3ccccc3)c(=O)n12
 : i | -10%
Cc1ccc(C(=O)NCc2ccccn2)cc1S(=O)(=O)N1CCCCC1
 : -14% | -22%
CCN(CC)CCCC(C)Nc1ccnc2cc(Cl)ccc12 (centres undefined)
 : -11%&-15% | -9%&2%
CCc1ccc(NC(=O)CSc2nc3ccccc3c(=O)n2CCNC(C)=O)cc1
 : -3% | -3%
Cc1ccc(CN2C(=O)c3ccccc3C2c2nnnn2C(C)C)cc1 (centres undefined)
 : -1% | 4%
CN(C(=O)c1cc(-c2ccc3c(c2)OCO3)on1)c1ccccc1
 : 23% | -5%
N#Cc1ccc(OCC(=O)NCCCn2ccnc2)cc1
 : i | -4%
CCOc1cc(C(=S)N2CCC(O)CC2)ccc1OS(=O)(=O)c1ccc(Br)cc1
 : -6% | ?
COc1ccc(-c2ccc3[nH]c4c(c3c2)CCN2C[C@@H]([C@H](C)O)[C@@H](N(C)C(=O)Nc3cc(Cl)cc(Cl)c3)C[C@@H]42)cc1
 : -22% | ?
CC(C)Cc1nn2c(=O)cc(COC(=O)c3ccccc3NC(=O)C3CCCCC3)nc2s1
 : i | -15%
COCOCCn1cc(CN2CCS(=O)(=O)N(Cc3ccc(-c4ccc(Cl)nc4)cc3)C(C(C)C)C2=O)nn1 (centres undefined)
 : -27% | ?
O=C(NCc1ccc(Cl)cc1)c1cc(=O)[nH]c2ccc(S(=O)(=O)N3CCOCC3)cc12
 : 6% | 0%
CCCOC(=O)c1ccc(NC(=O)c2cnccn2)cc1
 : -13% | -5%
CCCCn1c(N)c(N(CC(C)C)C(=O)C2CCN(S(=O)(=O)c3ccc(F)cc3)CC2)c(=O)[nH]c1=O
 : -9% | -2%
NC(=O)c1nn(-c2ccccc2)nc1NC(=O)CN1CCOCC1
 : -9% | -12%
CCCN(C(=O)CSc1nnc(-c2ccncc2)n1CCC)c1c(N)n(Cc2ccccc2)c(=O)[nH]c1=O
 : i | -9%
COC(=O)c1ccc(Cl)cc1NC(=O)N1CC(C)Oc2ccccc21 (centres undefined)
 : i | -10%
CSc1ccc(CCNC(=O)Cn2ncc3c(=O)oc4ccc(C)cc4c32)cc1
 : -9% | -10%
COCCNC(=S)N/N=C(\C)c1ccc(O)cc1
 : i | -7%
CC12CN3CCN(CC(C3)/C1=N\NC(=O)Nc1cccc(Cl)c1)C2
 : i | 2%
O=C(O)C1CC=CCC1C(=O)Nc1cccc(F)c1 (centres undefined)
 : -12% | -5%

An excerpt of these results, field by field:
Cc1ccc(-c2nsc3c(N4CCC(C(N)=O)CC4)ncnc23)cc1
  VACV mCherry inh: -14%
  Vaccinia Venus: -11%
CCc1ccc(NC(=O)CSc2nc3ccccc3c(=O)n2CCNC(C)=O)cc1
  VACV mCherry inh: -3%
  Vaccinia Venus: -3%

(continued)
Order of values – VACV mCherry inh | Vaccinia Venus
O=C(Cn1nc2ccccc2n1)N/N=C/c1ccc(F)cc1
 : i | -8%
O=C(CSc1ccc2c(c1)OCCO2)Nc1ccccc1
 : -6% | -18%
O=C(O)c1ccc(CSc2nc(-c3ccc(Cl)cc3)cc(C(F)(F)F)n2)cc1
 : i | -3%
Cc1cccc(NC(=S)NNC(=O)Cc2ccccc2)c1
 : -7% | -12%
COc1cccc(CNC(=O)c2cc3c(=O)n(C)c4ccccc4c3n2C)c1
 : -13% | -14%
CC12CC3CC(C)(C1)CC(C(=O)NC(=S)N1CCCCC1)(C3)C2
 : i | -10%
COc1ccc(C(=O)N2CCC(c3nc4ccccc4s3)CC2)cc1Cl
 : ? | -16%
Cc1ccccc1NC(=S)/C(=C(\[O-])c1cc(C)n(Cc2ccccc2Cl)c1C)[n+]1ccccc1
 : -3% | 2%
Cc1ccc(S(=O)(=O)N(C)c2ccc(OCC(=O)NC3=NCCS3)cc2)cc1
 : i | -2%
CCOC(=O)c1cccc(NC(=O)CSc2nc(N)cc(N)n2)c1
 : -24% | ?
COc1ccc(C(=O)C(=O)c2ccc(OCCO)cc2)cc1
 : -15% | -11%
CC1CCCN(C2=C(Cl)C(=O)N(c3cccc(Cl)c3)C2=O)C1 (centres undefined)
 : -14% | -10%
O=C1c2ccccc2C(=O)N1CCSc1nc2ccccc2c(=O)n1CCCN1CCOCC1
 : i | -11%
CC(C)c1ccc(OCC(=O)N2CCc3ccccc3C2)cc1
 : i | -10%
CC(NC(=O)c1c(N)[nH]c(C(=O)c2ccccc2)c1-c1ccccc1Br)c1cccc2ccccc12 (centres undefined)
 : 10% | -7%
COc1ccc2c(c1)C(CC(C)=O)N(c1ccc(-c3cccs3)cc1)C(c1ccsc1)=C2 (centres undefined)
 : 0% | -5%
Cn1nc(C(=O)N2CCN(c3ccccc3F)CC2)c2c1-c1ccccc1SC2
 : -6% | 2%
CCC(=O)Oc1ccc(C2NC(=O)c3ccccc3O2)cc1OC (centres undefined)
 : i | -9%
CCc1ccc(N(CC(=O)NCC2CCCO2)C(=O)CCC(=O)Nc2nccs2)cc1 (centres undefined)
 : -11% | 0%
Cc1cccc(NC(=O)CNC(=O)CN2C(=O)NC3(CCc4ccccc43)C2=O)c1C (centres undefined)
 : -26% | -22%
COC(C[C@H](O)[C@@H](C)[C@H](O)COCc1ccccc1)OC
 : -13% | -5%
COc1cccc(NC(=O)C(NCC2CCCCC2)c2ccccc2)c1 (centres undefined)
 : . | -1%
O=C(NCc1ccccc1)c1cnc(Cl)c(Cl)c1
 : -29% | -2%
CCn1c(CSc2nccn2C)nc2cc(C(=O)O)ccc21
 : -15%[1.46 µM] | 16%
C/C(=N\NC(=O)c1ccc2c(c1)OCO2)c1ccc2c(c1)OCO2
 : -9% | -6%
O=C/C=C/c1ccccc1
 : 41%[activator] | -11%
O=C(O)c1c2c(nc3ccc(S(=O)(=O)N4CCC(C(=O)NCc5ccc(Cl)cc5)CC4)cc13)CCCC2
 : 0%[7.34 µM] | 1%[7.34 µM]
COc1ccc(OC)c(NC(=O)c2cnn(-c3ccccc3)c2C)c1
 : -14% | -10%
N#Cc1ccccc1NC(=O)COC(=O)c1ccc2c(c1)OCCO2
 : -5% | -3%
Cc1ccc(-c2cc(C(=O)N3CCN(c4ncccn4)CC3)c3ccccc3n2)cc1
 : -24% | ?

The listing continues:
Order of values – VACV mCherry inh | Vaccinia Venus
CN(C)C(=O)c1cccc(-c2cnc3cccnn23)c1
 : -11% | -2%
Cc1nc2sc(C(=O)N(C)c3ccccc3)c(NC(=O)c3ccccc3Cl)c2c(C)c1C
 : -3% | -7%
CN(C(=O)c1cccc(NC(=O)Cc2cccc(NC(=O)C3CCCN(C(=O)C4CCCCC4)C3)c2)c1)C1CCC1 (centres undefined)
 : -19% | -10%
O=C(Nc1ccc2oc(-c3ccncc3)nc2c1)c1c(F)c(F)c(F)c(F)c1F
 : ? | -12%
CC(=O)c1cc(F)c(N2CCN(C(=O)COc3ccccc3F)CC2)cc1C
 : -18% | -20%
Cc1ccc(S(=O)(=O)NCc2ccc(C(=O)N3CCN(c4ccccn4)CC3)cc2)cc1
 : -26% | -25%
CCc1nc2nc(C)c(NS(=O)(=O)c3ccc(CC(C)C)cc3)c(=O)n2[nH]1
 : -5% | -18%
CCOC(=O)C1CCN(C(=O)/C=C/c2ccccc2)CC1
 : i | -7%
O=C(CS(=O)(=O)c1nc(-c2ccc(Cl)cc2)cn1-c1ccccc1)Nc1ccc(F)cc1F
 : ? | -26%
O=C(NC1CCCCC1)C1(c2ccccc2)CC1(Cl)Cl (centres undefined)
 : -1% | -9%
C(=N\n1cnnc1)/c1ccc(OC2CSC2)cc1
 : i | -5%
CC(C)Nc1nc(Cl)nc(NCCOc2ccccc2)n1
 : ? | -8%
Cc1cc(C)cc(N(C(=O)c2sc(C)nc2C)C(C(=O)NCc2ccco2)c2ccccc2)c1 (centres undefined)
 : -22% | -12%
CC(C)=CCc1c(O)cc(O)c2c(=O)c3c(CC=C(C)C)c(O)ccc3oc12
 : ? | ?
O=C(CCS(=O)(=O)c1ccc(Cl)cc1)N1CCN(S(=O)(=O)c2cccs2)CC1
 : -29% | -24%
COC(=O)C[C@@H]1C=C[C@@H](NC(C)=O)[C@@H](CO)O1
 : 3% | -3%
CCC(C)Sc1ccc([C@@H]2[C@H]3C(=O)N(CC)C(=O)[C@H]3[C@]3(C(=O)OC)CCCCN23)cc1 (some centres undefined)
 : -15% | -27%
Cc1nnc(SCC(=O)O)s1
 : -3% | -3%
CC(=O)Nc1cccc(C(=O)NCc2ccc3c(c2)CCN3C(C)=O)c1
 : -19% | -17%
O=C(Cn1cc(C(F)(F)F)cc(Cl)c1=O)NCc1ccc(F)cc1
 : -12% | -4%
COc1ccc(Nc2nc(-c3c[nH]c4ccccc34)cs2)cc1
 : 2% | 8%
Cc1ccc(N2CC(C(=O)NCCN3CCOCC3)CC2=O)cc1 (centres undefined)
 : -13% | 5%
C/C(=N\NC(N)=O)C1CC(CC(C)C)C(=O)O1 (centres undefined)
 : i | -8%
O=C(N/N=C/c1ccncc1)c1cnccn1
 : -5%[7.34 µM] | -16%[7.34 µM]
COc1ccc(-c2nnc(-c3ccc(C)cc3)o2)cc1
 : i | -14%
CCOC(=O)CC1=C(C(=O)OCC)C(c2ccc(OC)cc2OC)C(C#N)=C(N)O1 (centres undefined)
 : . | -19%
CC1(C)CC(=O)C2=C(C1)OC(N)=C(C#N)C21CCN(Cc2ccccc2)CC1
 : -12% | 12%
CCOc1ccc(/C=N/O)cc1
 : -18% | 0%
CCOC(=O)C1(C)CCCN1C(=O)c1sccc1C (centres undefined)
 : 2% | -16%
Cn1c(=O)c2c(-c3ccccc3)n(-c3cccc(O)c3)cc2n(C)c1=O
 : i | -1%

(next part)
Order of values – VACV mCherry inh | Vaccinia Venus
Cc1ccc(OCc2nnc(SCC(=O)O)n2N)cc1
 : -13% | -11%
Cc1ccc(-n2c(O)c(/C=N/NC(=O)c3ccncc3)c(=O)[nH]c2=O)cc1C
 : -14% | -8%
O=C(c1ccccc1)c1ccc(C(=O)N2CCOCC2)cc1
 : 1%[1.46 µM] | -8%
CCc1ccc(N2CC(C(=O)N3CCN(c4ccc([N+](=O)[O-])cc4)CC3)CC2=O)cc1 (centres undefined)
 : -6% | -15%
O=C(NCC(=O)N(c1ccc(F)cc1)C(C(=O)NC1CCCC1)c1cccnc1)c1cccs1 (centres undefined)
 : i | 8%
CN(C(=O)COc1ccccc1)c1nnc(C23CC4CC(CC(C4)C2)C3)s1
 : -3% | -24%
Cc1ccc(-c2cn(S(=O)(=O)c3cccc([N+](=O)[O-])c3)nc2N)cc1
 : -12% | -14%
CN(CC(=O)Nc1ccc(N2CCOCC2)cc1)C(=O)Cc1ccccc1
 : -12% | -7%
CCCC(=O)c1ccc(N2CCN(S(=O)(=O)c3ccccc3)CC2)c(F)c1
 : -13% | -12%
O=C(CN(Cc1ccccc1F)C(=O)c1csnn1)NC1CCCCC1
 : -10% | -14%
CCOc1ccccc1NC(=O)c1ccc2c(c1)C(=O)N(C(C)(C)C)C2=O
 : -3% | -1%
COc1ccccc1NC(=O)c1oc2ccccc2c1NC(=O)C1CC1
 : -1%[7.34 µM] | -18%[7.34 µM]
C(=C\c1ccccc1)/C=N/Nc1nc(N2CCCCC2)nc(N2CCCCC2)n1
 : -18% | -13%
O=C(CCC(=O)NNC(=O)COc1ccccc1)NCc1ccccc1
 : -11% | -5%
OCCNc1ncnc2c1ncn2[C@H]1CN(Cc2ccco2)C[C@@H](CO)O1
 : 24% | 1%
O=C(NC1CC1)[C@@H]1C[C@H](Sc2nc3ccccc3[nH]2)CN1CC1CCCCC1
 : -18% | -12%
CC(C)NC(=O)c1ccc(Cn2c(SCc3ccc(F)cc3)nc3cccnc32)cc1
 : -16% | -16%
Cc1cccc(NC(=O)CSc2nc(=O)n(CCN3CCOCC3)c3c2CCC3)c1C
 : -10%[7.34 µM] | -10%[7.34 µM]
COCc1cc(C)nc(SCC(=O)Nc2ccccc2C)c1C#N
 : -12% | -10%
O=C(NN=C1CCCCCCC1)c1ccc(F)cc1
 : -14% | -4%
COc1ccc(C(=O)CC(=O)C(=O)Nc2cccc(F)c2)cc1
 : i | -6%
Cc1ccc(-c2cccc(C3CC=CC4C3C(=O)N(Cc3ccccc3)C4c3cc(C)ccc3F)c2)cc1 (centres undefined)
 : -12% | -18%
CCC(OC(=O)c1cc2sccc2n1C)C(=O)NCC1CCCO1 (centres undefined)
 : -1% | -15%
CN(C)CC/C=C1\c2ccccc2COc2ccccc21
 : -14% | -8%
Nc1cc(N)nc(SCCOc2ccccc2)n1
 : i | -6%
CC(=O)N1CCN(Cc2nc3cc(NC(=O)c4ccccc4)ccc3n2C)CC1
 : . | -15%

From PubChem
